Assay outcomes (PubChem)
BmaI1 enzyme: BmaI1 acyl-homoserine lactone synthase inhibition – biochemical, fluorescence intensity, with counterscreen (AID 720554); inhibition, %; hit rate 0.4% among 12,000; BmaI1 enzyme assay, fluorescence intensity; stronger effect = higher value; test concentration not given here; a few actives read low; strong numbers were not always called active;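 active = both replicates within 2 robust z-scores of the inhibited control and a quiet counterscreen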;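 also: 0% = uninhibited enzyme and 100% = inhibited control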
BmaI1 enzyme counterscreen: further read-out of BmaI1 enzyme, marked with its call; inhibition, %; measured here: counterscreen; design of the counterscreen not given here;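 first of two replicates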
Numbers without * were called inactive. A portion of the library; the hit share may differ from the screen's.

SMILES	BmaI1 enzyme	BmaI1 enzyme counterscreen
C=CCn1c(SCC2=C(C(=O)OCC)C(C)NC(=O)N2)nnc1C1CCCCC1 (configuration not stated)	9	6
c1ccc2oc(CSc3ccc4c(c3)OCCO4)nc2c1	9	2
Cc1[nH]c2ccc(C(=O)OCC(=O)N3CCN(c4ccccc4)CC3)cc2c1C	8	2
Cc1cc(N=Cc2c(O)n(-c3cccc(Cl)c3)c(=O)c3ccccc23)no1	11	8
Cc1ccc(/C=C/C(=O)NC(c2ccc3c(c2)OCCCO3)C(C)C)o1 (configuration not stated)	4	-1
COc1cccc(N=c2scc(-c3ccco3)n2CC2CCCO2)c1 (configuration not stated)	30	16
O=C(COc1ccc(Br)cc1F)NCCc1ccccn1	10	5
Cc1c(C#N)c(NC(=O)CN2CCCC2c2cccs2)n(Cc2ccco2)c1C (configuration not stated)	24	-13
Cc1cc(C(=O)Oc2ccc(C#N)cc2)c(C)s1	8	-2
CSc1nc(C)c(CCC(=O)O)c(C)n1	13	14
C=CCOc1ccc(/C=C/C(=O)N2CCN(S(=O)(=O)c3cccs3)CC2)cc1	16	6
CN(C)/C=N/N1CC(O)=C(c2nc3ccccc3s2)C1=N	60	75
Oc1cccc(C=Nc2ccccc2N2CCOCC2)c1	51	-13
CCN(CC)S(=O)(=O)c1ccc(C(=O)NCC(=O)OC)cc1	14	5
NC(=O)C1CCCCN1C(=S)Nc1cccc(C(F)(F)F)c1 (configuration not stated)	2	3
O=C(c1ccccc1)c1ccccc1C(=O)N1CCN(C2CCS(=O)(=O)C2)CC1 (configuration not stated)	12	-1
CC(=O)Nc1ccc(S(=O)(=O)N(C)CC(=O)NC2CCCc3ccccc32)cc1 (configuration not stated)	1	-6
CC(=O)NC(Cc1c[nH]c2ccccc12)C(=O)N1CCN(c2cccc(C(F)(F)F)c2)CC1 (configuration not stated)	22	0
O=C1C2C3CC4C5C3C1C5C1(OCCO1)C42 (configuration not stated)	14	7
COc1ccc(C[C@H](C)NC[C@@H](O)c2ccc(O)c(NC=O)c2)cc1	18	16
Cc1ccc(C)c(S(=O)(=O)N(C)Cc2cccs2)c1	4	-2
COc1ccccc1CN(C)C(C)C(=O)NC1CCCc2ccccc21 (configuration not stated)	10	8
Cn1c(N)c(C(=S)NC(=O)c2cccs2)c(=O)n(C)c1=O	9	10
COC(=O)/C(=C(/O)CSc1nnc(C2CC2)n1C)c1nc2ccccc2[nH]1	16	5
CCc1ccc(OCC(=O)Nc2ccc(S(=O)(=O)C(F)F)cc2)cc1	4	2
CN(C)c1ccc(O)c2c1C[C@H]1C[C@H]3[C@H](N(C)C)C(=O)C(C(N)=O)=C(O)[C@@]3(O)C(=O)C1=C2O	56	25
CCCCP(=O)(c1ccccn1)c1ccccn1	6	2
O=C(NC1CCCc2ccccc21)C1CCCC1 (configuration not stated)	-10	-11
NC(=O)c1c(NC(=O)CSc2nc3ccccc3s2)sc2c1CCC2	19	-9
COc1cc(NC(C)CCCN)c2ncccc2c1 (configuration not stated)	-24	-12
O=C(N/N=C/c1cn(-c2ccccc2)nc1-c1cc2ccccc2o1)c1ccncc1	6	4
Nc1ncccc1C(=O)OCCN1C(=O)c2ccccc2C1=O	14	10
CC(=O)N=c1sc(S(N)(=O)=O)nn1C	0	12
CC(C)(C)C(=O)C(CO)(Oc1ccc(Cl)cc1)n1cncn1 (configuration not stated)	5	4
O=C(O)CONC1=NS(=O)(=O)c2ccccc21	6	3
O=C(N[C@@H](Cc1ccccc1)c1nc2ccccc2[nH]1)c1ccc(=O)[nH]c1	-8	-8
Cn1ccnc1SCC(=O)c1ccc2ccccc2c1	24	27
N#Cc1ccccc1CS(=O)(=O)N1CCOCC1	-7	-5
Cc1[nH]c(=O)[nH]c(=S)c1C#N	4	2
COc1cccc(-n2c(SCC(=O)Nc3ccc4[nH]c(=O)[nH]c4c3)nc3ccccc3c2=O)c1	21	13
Cc1cc(C)cc(NC(=O)CN2CCN(S(=O)(=O)c3ccccc3)CC2)c1	16	8
O=C(Cc1csc(-c2ccccc2)n1)NC1CC1	17	8
CSc1ccccc1NC(=O)COC(=O)/C=C/c1ccco1	22	13
COc1ccc(N/N=C(\C#N)C(=O)Nc2ccccc2C(=O)O)cc1Cl	75	28
COC(=O)c1ccc2c(=O)[nH]c(COC(=O)c3ccc(Cl)c(N)c3)nc2c1	14	11
S=P1(N2CCOCC2)C2=C(CCC2)C2=C(CCC2)N1c1ccccc1 (configuration not stated)	18	3
Cc1cccc(C(=O)Nc2ccc(O)cc2)c1	68	56
Cc1sc(N)c(C(=O)c2cccc(C(F)(F)F)c2)c1C	5	14
Cc1cnc(NC(=O)CSc2ccc(Cl)cc2)s1	8	6
CC(NS(=O)(=O)c1cccc2nsnc12)C(=O)OCc1csc(-c2ccccc2)n1 (configuration not stated)	0	3
CCCC(=O)Nc1ccc(C(=O)Cn2nnc(-c3cccc(F)c3)n2)cc1	17	11
CS(=O)(=O)N1Cc2ccccc2CC1C(=O)OCC(=O)N1CCc2ccccc21 (configuration not stated)	15	2
Cc1ccc(/C=C2\SC(=S)N(CCCCC(=O)O)C2=O)o1	34	0
CSc1ncc(C(=O)Nc2ccnn2Cc2ccccn2)n1-c1ccc(F)cc1	20	17
CC(Sc1nnnn1-c1ccccc1)C(=O)NCCC1=CCCCC1 (configuration not stated)	0	2
Cc1cc(-n2c(C)cc(C(=O)COc3ccc4ccc(=O)oc4c3)c2C)no1	6	-4
O=C(CNC(=O)C1CCCCC1)OCc1cc(-c2ccccc2)on1	20	13
CC1(C)OC(=O)C(=C2C3C4CC5C3C(=C3C(=O)OC(C)(C)OC3=O)C3C2C4C53)C(=O)O1 (configuration not stated)	27	10
NS(=O)(=O)c1cc(C(=O)NCCc2ccc3c(c2)OCCO3)ccc1Cl	18	13
Cc1nc(Cc2nnc(SCc3cc4ccccc4nc3Cl)o2)cs1	18	3

6 compounds drawn at random from those above, as already listed:
SMILES	BmaI1 enzyme	BmaI1 enzyme counterscreen
CCc1ccc(OCC(=O)Nc2ccc(S(=O)(=O)C(F)F)cc2)cc1	4	2
NC(=O)C1CCCCN1C(=S)Nc1cccc(C(F)(F)F)c1 (configuration not stated)	2	3
O=C(c1ccccc1)c1ccccc1C(=O)N1CCN(C2CCS(=O)(=O)C2)CC1 (configuration not stated)	12	-1
Cc1[nH]c(=O)[nH]c(=S)c1C#N	4	2
COc1cc(NC(C)CCCN)c2ncccc2c1 (configuration not stated)	-24	-12
COC(=O)c1ccc2c(=O)[nH]c(COC(=O)c3ccc(Cl)c(N)c3)nc2c1	14	11

Profiles from above. Order of screens: BmaI1 enzyme	BmaI1 enzyme counterscreen
Entry for `Cc1cc(-n2c(C)cc(C(=O)COc3ccc4ccc(=O)oc4c3)c2C)no1` → 6	-4
Entry for `CC1(C)OC(=O)C(=C2C3C4CC5C3C(=C3C(=O)OC(C)(C)OC3=O)C3C2C4C53)C(=O)O1` (configuration not stated) → 27	10
Entry for `Cc1ccc(/C=C2\SC(=S)N(CCCCC(=O)O)C2=O)o1` → 34	0
Entry for `NS(=O)(=O)c1cc(C(=O)NCCc2ccc3c(c2)OCCO3)ccc1Cl` → 18	13

Next section.
SMILES	BmaI1 enzyme	BmaI1 enzyme counterscreen
CCNc1nc(-c2cc3ccccc3o2)cs1	19	4
CC(=O)Nc1ccc(C2SCC(=O)N2Cc2ccc3c(c2)OCO3)cc1 (configuration not stated)	16	13
Brc1cc2c(cc1CSc1nnc(Cc3ccccc3)o1)OCO2	8	0
CC1Cc2ccccc2N1C(=O)/C=C/c1cccs1 (configuration not stated)	10	4
CN1C(=O)C(C(N)=O)=C(N)C12CCCC2	22	8
CC(C)CN(C(=O)c1ccncc1)c1nc2ccccc2s1	0	0
CC(C)(C)NC(=O)CSc1ncnc2c1cnn2-c1ccccc1	14	17
COC(=O)c1ccc(C2N=C(c3ccccc3C)NO2)cc1 (configuration not stated)	-67	-58
CCc1[nH]c(C(=O)O)c(C)c1C(=O)OC	2	5
CC1CN(S(=O)(=O)c2cc(C(=O)N3CCNC(=O)C3)ccc2Cl)CC(C)O1 (configuration not stated)	15	10
CCOc1ccccc1N1CCN(C(=O)c2ccc3c(c2)S(=O)(=O)N=C2CCCCCN23)CC1	12	-1
CCOC(=O)C1CCN(C(=O)c2nn(C)c(=O)c3ccccc23)CC1	3	4
CSc1nc2cc(Oc3cccc(Cl)c3Cl)c(Cl)cc2[nH]1	0	2
CC(/C(O)=C(\C#N)c1nc2ccccc2s1)N1C(=O)c2ccccc2C1=O (configuration not stated)	0	-6
COc1ccc(N2CCN(C=C3C(=O)NC(=O)NC3=O)CC2)cc1	-148	-39
CC1=CC(=C(C#N)C#N)C=C(C)N1c1cccnc1	10	-4
N#CC1(NC(=O)Cn2cnc3c(Cl)cc(Cl)cc3c2=O)CCCCC1	17	6
CNC(=O)NC(=O)C(C)N1CCN(c2ccccc2)CC1 (configuration not stated)	10	7
CCOc1ccccc1NC(=O)C(NCc1ccco1)c1ccccc1 (configuration not stated)	6	7
CC(NC(=O)CSc1nnnn1C)c1ccccc1 (configuration not stated)	4	3
Cc1csc(=O)n1CC(=O)Nc1ccccc1	8	4
O=C(O)CCCc1cccs1	10	-2
CCCCn1c(CCC(=O)Nc2ccc(NC(C)=O)cc2)nc2cc(S(=O)(=O)N(C)C)ccc21	-3	-2
Cc1cc(I)ccc1NC(=O)c1ccc2c(c1)SC1=NS(=O)(=O)CCN12	10	10
c1csc(-c2nc(N3CCN(Cc4ccc5c(c4)OCO5)CC3)c3ccccc3n2)c1	12	8
COCC(C)n1c(C)cc(C(=O)Cn2ncc(Cl)c(Cl)c2=O)c1C (configuration not stated)	8	-1
Cc1nc(SCC(=O)NCc2cccs2)n(C2CCCCC2)c1C	2	4
COc1ccc2c(CC(=O)OC(C)C(=O)NCc3ccc4c(c3)OCO4)coc2c1 (configuration not stated)	20	0
CC(C)Cn1c(O)c(N=NC(=O)c2cccnc2)c2ccccc21	18	6
CCc1ccc(CN(Cc2cccnc2)C(=O)c2cnc(C)cn2)cc1	0	-4
COc1ccccc1NC(=O)Cc1nc(CSc2nncn2C(C)C)cs1	10	2
CCc1ccccc1Nc1nc(N)nc(Cn2cnc3ccccc32)n1	2	12
COc1ccc(O)c(C(=O)c2cnn(C(=O)c3ccc4c(=O)n5c(nc4c3)CCC5)c2)c1	-10	-11
O=C(COC(=O)c1ccccc1)Nc1ccc(OC(F)F)cc1	0	-6
CCCN(Cc1nnc(-c2ccco2)o1)C(=O)CN1C(=O)COc2ccccc21	11	18
O=C(Cc1ccccc1F)Oc1ccc(-c2nnco2)cc1	10	-2
COC(=O)c1c(C)oc2cc(C)c(NS(=O)(=O)c3cccs3)cc12	-2	-8
O=c1oc2cc(Oc3ncccn3)ccc2c2c1CCCCC2	4	7
N#Cc1ccc(CN2CCCC2)cc1	6	7
CCn1nnc2cc(C(=O)Nc3ccc4c(c3)CCC4)ccc21	20	0
O=C(CCCSc1ccccc1)Nc1cccc(CO)c1	34	4
CCn1c(SCC(=O)OCC(=O)N=c2sccn2Cc2ccc(C)cc2)nnc1-c1ccco1	14	5
CC(=O)OCC(=O)NCCCOc1cccc(CN2CCCCC2)c1	4	6
CCC1(CC)NC(=O)N(Cc2nnc(-c3ccccc3Br)o2)C1=O	2	6
CC(=O)N1CCN(S(=O)(=O)c2cccc(C(=O)OCC(=O)c3cc(C)n(-c4ccc5c(c4)OCO5)c3C)c2)CC1	19	8
CN(C)CCOC(c1ccccc1)c1ccccc1	-1	0
Cc1n[nH]c(C)c1S(=O)(=O)N1CCC(C(=O)N(C)Cc2cccc(Cl)c2Cl)CC1	8	0
Cc1nn(-c2cccc(C(F)(F)F)c2)c2sc(C(=O)O)cc12	8	-4
CNC(=O)NC(=O)C(C)Sc1nc2ccc(C)cc2[nH]1 (configuration not stated)	1	3
CP1(=O)COc2ccccc2OC1	24	10
Cc1ccc(S(=O)(=O)N(C)c2ccc(OCC(=O)Nc3ccc(N4CCN(C)CC4)cc3C)cc2)cc1	21	6
COc1ccccc1C(=O)N(CC(=O)Nc1ccccc1C(F)(F)F)Cc1ccco1	5	0
O=C(CN1CCCc2ccccc21)NCCc1ccc(F)cc1	4	2
O=C(CN1C(=O)C2CC=CCC2C1=O)N1CCN(S(=O)(=O)c2ccc3c(c2)OCCCO3)CC1 (configuration not stated)	5	0
O=c1cc(CSc2nnc(-c3cccnc3)o2)c2cc3c(cc2o1)CCC3	16	10
CCCCN=C1NN=C(c2cc3ccccc3o2)CS1	23	16
O=C(OCC1CC(c2ccccn2)=NO1)c1ccc(Br)cc1 (configuration not stated)	-4	-7
Cc1ccc(/C=C/C(=O)N(C2=NC(C)CS2)c2ccc(Cl)cc2)o1 (configuration not stated)	10	6
CNC(=S)NCC(c1ccco1)N1CCCCC1 (configuration not stated)	-6	2
CN(C)c1ccc(NC(=O)CSc2nnc(C3CC3)n2N)cc1	50	14

An excerpt from above in order of heavy-atom count, lowest first.
SMILES	BmaI1 enzyme	BmaI1 enzyme counterscreen
CCN(CC)S(=O)(=O)c1ccc(C(=O)NCC(=O)OC)cc1	14	5
Cc1nc(SCC(=O)NCc2cccs2)n(C2CCCCC2)c1C	2	4
COc1ccc2c(CC(=O)OC(C)C(=O)NCc3ccc4c(c3)OCO4)coc2c1 (configuration not stated)	20	0

Next entries.
SMILES	BmaI1 enzyme	BmaI1 enzyme counterscreen
Cc1cc(C)n(CC(=O)N/N=C/c2sc(N3CCCCC3)nc2-c2cccs2)n1	15	-10
C[C@H](NC(CCc1ccccc1)C(=O)O)C(=O)N1CCC[C@H]1C(=O)O (some centres not stated)	0	0
O=C(c1cccc(S(=O)(=O)Nc2cc(C(F)(F)F)ccc2Cl)c1)N1CCN(c2ncccn2)CC1	4	7
Cc1ccc2nc(CSc3nc4ccccc4n3C)cc(=O)n2c1	2	1
CC(Sc1nnc(-c2ccc(Cl)cc2)n1Cc1ccco1)C(=O)NCCC1=CCCCC1 (configuration not stated)	-4	4
CC(NC(=O)COc1ccccc1)C(=O)N1CCC(=O)CC1 (configuration not stated)	4	3
CCN1C(=O)C2C=CC=CC2NC1=S (configuration not stated)	8	2
O=C(N/N=C/C1CC2C=CC1C2)c1ccccc1O (configuration not stated)	-20	1
COc1ccccc1CN(C)CC(=O)NC1CCCc2ccccc21 (configuration not stated)	8	-2
